High-throughput results deposited in PubChem by National Center for Advancing Translational Sciences (NCATS).
Cruzain inh Det: qHTS Assay for Promiscuous and Specific Inhibitors of Cruzain (with detergent) | Cruzipain (Trypanosoma cruzi), P25779 | purified cruzain, Z-FR-AMC fluorescence, 0.01% Triton | Potency, µM, for the others: max response, negative = inhibition, usual class: inhibitors | 200,000 compounds, 0.43% hits;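 also: plate controls were neutral wells for no effect and buffer without enzyme for full effect; nearly all actives have a fitted effect of over 40% in size; top concentration of the series not given in the record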
Target sequence (P25779 123-467 limits assumed): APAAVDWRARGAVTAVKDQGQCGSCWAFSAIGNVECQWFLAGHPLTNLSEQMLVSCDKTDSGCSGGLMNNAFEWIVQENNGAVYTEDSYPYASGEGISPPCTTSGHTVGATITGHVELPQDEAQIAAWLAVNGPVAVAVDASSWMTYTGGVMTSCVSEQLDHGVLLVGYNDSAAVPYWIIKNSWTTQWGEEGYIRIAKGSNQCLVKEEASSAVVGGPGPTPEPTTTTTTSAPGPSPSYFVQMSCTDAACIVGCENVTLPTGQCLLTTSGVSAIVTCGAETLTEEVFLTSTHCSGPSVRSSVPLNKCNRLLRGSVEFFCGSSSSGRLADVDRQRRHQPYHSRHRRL
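Purified cruzain (1.5 nM final) was preincubated with compounds for 15 min at room temperature in 100 mM sodium acetate pH 5.5, 5 mM DTT, 0.01% Triton X-100. Reaction started with 2 uM Z-FR-AMC; AMC fluorescence change over 60 s gave activity.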
NS1 inh: qHTS Assay for Inhibitors of Influenza NS1 Protein Function | S. cerevisiae slowed by influenza A NS1, growth recovery by OD600 | AID 2326, 2010 | 270,000 compounds, 0.4% hits | Potency, µM (top dose mostly 46.1 µM), for the others: at the top dose activity, positive = more growth; active means well fitted rising curve with a large enough effect; inconclusive means small, poorly fitted or top-dose-only effect; inactive means no such curve, though single readings can be large or run the other way; also: nearly all actives have a fitted effect of over 50% in size
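S. cerevisiae expressing influenza A NS1, grown in glucose, washed, then diluted 1:100 into pH 6.0 -URA galactose medium with 23 nl compound. Growth recovery read as OD600; NS1-free strain serves as control.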
Cruzain noTriton: qHTS Assay for Promiscuous and Specific Inhibitors of Cruzain (without detergent) | purified cruzain, Z-FR-AMC fluorescence, no detergent | Potency, µM, inactives show max response, negative = inhibition, usual class: inhibitors | 200,000 compounds, 2.3% hits | AID 1476, 2009;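 also: plate controls were enzyme without inhibitor for no effect and buffer without enzyme for full effect; nearly all actives have a fitted effect of over 40% in size; top concentration of the series not given in the record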
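Detergent-free condition (0.00005% Triton X-100) in acetate buffer pH 5.5 with DTT. 1.5 nM enzyme and compound were pre-mixed 15 min, then 2 uM Z-FR-AMC substrate added; reaction progress from fluorescence change between first and third reads (60 s).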
The depositor's hits bear a star; ? = inconclusive. Unless noted, calls follow the shape of the dose curve; as a rule, active = well fitted curve in the direction sought with a large enough effect; inconclusive = small, poorly fitted or top-dose-only effect, or another doubt; inactive = no such curve, though single readings can be large; an effect the other way counts as inactive or inconclusive. Potency is read from the fitted curve at half-maximal effect. These rows are one share of the data; rates above refer to the full screens.

SMILES	Cruzain inh Det	NS1 inh	Cruzain noTriton
Oc1c([C@H](Nc2ccccn2)c2ccccc2)ccc2cccnc12	-11%	-40%	3%
O=C1c2cccc(O)c2C(=O)c2c(O[C@@H]3O[C@H](CO)[C@@H](O)[C@H](O)[C@@H]3O)cccc21	1.1%	-1%	-6%
O=C(O)c1ccc(Cc2ccccc2C(=O)O)cc1	1.8%	-8%	6%
CCOC(=O)CCCN	2.9%	-7%	6%
COc1ccc2[nH]c3cc4c(=O)c5cc(OC)ccc5[nH]c4cc3c(=O)c2c1	-2.3%	5%	2%
Cc1ccc([C@@]2(C)CC/C(=N/N=C3\CC[C@](C)(c4ccc(C)c(C)c4)c4cc(C)c(C)cc43)c3cc(C)c(C)cc32)cc1C	-1.1%	-6%	0%
COc1cccc2c1C(=N)c1c(O)c3c(c(O)c1C2=O)C[C@](O)(C(C)=O)C[C@@H]3O[C@H]1C[C@H](N)[C@@H](O)[C@H](C)O1	-0.8%	3%	-2%
O=S(=O)(c1ccc(Br)cc1)N1CCN(S(=O)(=O)c2ccc(Br)cc2)CC1	-3.2%	-3%	0%
CN(C)CCN(c1ccccn1)c1ccccn1	11%	-7%	8%
CSc1ncnc2c1ncn2CC(=O)[C@H]1CC[C@H]2[C@H]3CCC4=CC(=O)CC[C@@]4(C)[C@@H]3CC[C@@]12C	0.4%	5%	5%
C[N+](C)(C)C(C1=CCCC1=O)c1ccccc1 (stereo not drawn)	1.4%	-10%	3%
O=C(O)CNC(=O)c1ccc([As](=O)(O)O)cc1	7.0%	-5%	7%
NCCSCCc1ccccc1	1.8%	1%	-10%
O[C@@H](COc1cccc2ccccc12)CN1CCOCC1	2.3%	-3%	2%
CSc1ccc2c(c1)N(CCCN(C)C)c1ccccc1S2	-0.3%	-3%	5%
OCCCN=C1CCCCC1	2.7%	3%	8%
c1ccc2sc(SCCSc3nc4ccccc4s3)nc2c1	-2.9%	-8%	-3%
N#C/C(=C(\O)C(=O)O)c1ccc(-c2cccc3ccccc23)cc1	4.8%	-7%	5%
N#C/C(=C\Nc1ccccn1)C(=O)C1CC1	-2.1%	0%	9%
C[C@H]1[C@H](O)[C@@H](C)C=CC=CC=CC=CC=CC=CC=C[C@H](O[C@@H]2O[C@@H](C)[C@H](O)[C@@H](N)[C@@H]2O)C[C@@H]2O[C@](O)(C[C@@H](O)C[C@@H](O)[C@@H](O)CC[C@@H](O)C[C@@H](O)CC(=O)O[C@H]1C)C[C@H](O)[C@H]2C(=O)O	4.7%	26%	8%
O=C(O)c1ccc([N+](=O)[O-])c(P(=O)(O)O)c1	1.8%	-2%	7%
CC(=O)O[C@H]1CC[C@H]2[C@@H]3CCC4=C[C@@H](C5SCCS5)[C@H](OC(C)=O)C[C@]4(C)[C@H]3CC[C@@]12C	-3.1%	-8%	-8%
O=C(O)c1ccccc1/C=N\N=C1c2ccccc2-c2ccccc21	-1.6%	-19%	3%
NS(=O)(=O)C[C-]1C=C[CH]([Sb-]([Cl])([Cl])([Cl])([Cl])[Cl])C=C1.c1ccncc1 (stereo not drawn)	-0.2%	-3%	23%
O=C(O)[C@@H](Br)[C@@H](Br)c1ccccc1[N+](=O)[O-]	0.9%	2%	8%
CN(C)C(=O)C1CCN(Cc2c[nH]c3ccccc23)CC1	3.9%	3%	3%
CCSCC[C@H](N)C(=O)O	1.3%	1%	7%
CC1=C[N+](=O)c2ccccc2[N+]1=O	-2.2%	0%	2%
O=C(O)CSCC(=O)O	0.9%	1%	2%
Cn1c(C[C@@H](O)c2nc3ccccc3n2C)nc2ccccc21	2.3%	-3%	15%
Nc1cc(S(N)(=O)=O)ccc1SSc1ccc(S(N)(=O)=O)cc1N	1.6%	8%	-24%
C[N+]1([O-])[C@H]2CC[C@H]1CC(OC(=O)[C@@H](CO)c1ccccc1)C2 (stereo partly drawn)	-2.3%	6%	-2%
Nc1nc(SCCc2ccccc2)c2[nH]cnc2n1	3.2%	0%	-10%
O=C(C[C@@H](c1ccccc1)N1CCCCC1)c1ccccc1	-1.6%	-6%	-2%
O=C(O)/C(Cc1ccnc2ccccc12)=N\O	1.0%	-1%	0%
Cc1ccc(S(=O)(=O)Oc2cc(S(=O)(=O)O)cc3cc(S(=O)(=O)O)cc(N)c23)cc1	2.4%	-3%	4%
COc1ccc2cc1Oc1ccc(cc1)C[C@@H]1c3c(cc(OC)c4c3Oc3cc5c(cc3O4)CCN[C@H]5C2)CCN1C	-5.8%	-8%	1%
C#CCOCCCC(=O)O	0.7%	0%	4%
O=C(O)/C=C\C(=O)N1Cc2cc3ccccc3nc2C1	0.1%	1%	5%
C[N+]1(CCCC[N+]2(C)CCCCCCC2)CCCCCCC1	-1.9%	-3%	2%
COc1ccc2c3c(ccc2c1)N[C@H](C(=O)O)CC3	-3.5%	-30%	5%
Cc1cn([C@H]2C[C@H](O)[C@@H](COC(N)=O)O2)c(=O)[nH]c1=O	1.9%	-1%	-6%
CN(C)CCSS(=O)(=O)O	0.3%	-11%	9%
O=C(C[N+]12CN3CN(CN(C3)C1)C2)c1ccc(-c2ccccc2)cc1	4.7%	-8%	?
O=c1[nH]c(=S)c2[nH]c(=O)n(-c3ccccc3)c2[nH]1	-1.9%	2%	-1%
O=c1cc(N=Nc2ccc(O)cc2)[nH]c(=O)[nH]1	0.0%	0%	3%
O=C1c2ccccc2C(=O)c2c(NC(=O)c3ccc4c5c(ncnc35)-c3ccccc3C4=O)cccc21	-1.5%	-3%	-1%
C/C(=N\O)c1cccc[n+]1Cc1ccccc1	0.4%	-8%	-3%
O=C(O)C/C=C\CC(=O)O	2.3%	0%	-4%
CC(C)C12CC[C@@]3(CC[C@H]4[C@@](C)(CCC[C@]4(C)C(=O)O)[C@@H]3C1)[C@@H](CN)C2	-1.1%	-10%	-4%
N#C/C(=C\N1CCNC1=S)C(=O)c1ccc2ccccc2c1	-1.8%	-6%	?
C[N+]1(NCC[N@@+]2(C)CCc3ccccc3C2)CCCCC1	1.5%	2%	-2%
Oc1ccccc1CNCc1ccccc1O	4.2%	-3%	13%
NS(=O)(=O)c1ccc(N=Nc2nc3[nH]c(=O)[nH]c(=O)c3[nH]2)cc1	9.3%	13%	?
CN(C)CCCn1cnc2cc(Cl)c(Cl)cc21	-6.2%	-3%	0%
C[C@@]12CC(=O)[C@@H]3[C@@H](CCC4=CC(=O)CC[C@]43C)[C@@H]1CC=C2CC(=O)O	-4.9%	-7%	9%
O=c1[nH]c(=S)[nH]c2c1CN(CCCN1CCOCC1)CN2	3.8%	0%	6%
O=C(O)c1cncc(C(=O)O)c1	1.3%	0%	-5%
N=C(N)SCC(=O)O	3.0%	3%	-1%
COc1cc2c(cc1OC)[C@@]13CCN4CC5=CCO[C@H](CC(=O)O)[C@@H]([C@H]1N2)[C@H]5C[C@H]43	5.2%	8%	-1%
(further entries)
SMILES	Cruzain inh Det	NS1 inh	Cruzain noTriton
Clc1ccc(-c2noc(CN3CCCCC3)n2)cc1	3.8%	2%	-8%
NCC(=O)N[C@H](CO)C(=O)O	-0.8%	8%	12%
CC1=NN(c2ccccc2)C(=O)[C@@H]1N=Nc1ccc(S(N)(=O)=O)cc1	0.8%	-3%	1%
N=c1nc(N)nc(N)n1-c1ccc(S(N)(=O)=O)cc1	12%	2%	-6%
CN(CC(=O)O)CC(=O)O	-3.3%	2%	4%
c1ccc(-c2nnn(CCN3CCCCC3)n2)cc1	4.7%	0%	6%
CC(=O)N[C@@H]1CONC1=O	-1.8%	-1%	4%
CC(=O)O[C@]12CC[N@+]3(C)CCCC[C@@H]3[C-]1Nc1ccccc12	0.5%	-6%	4%
CC1(C)S[C@@H]2[C@H](C(=O)O)N=C(Cc3ccccc3)N2[C@H]1C(=O)O	2.5%	-5%	11%
COc1ccc2cc(C(=O)CCC(=O)O)ccc2c1	-3.7%	-6%	15%
NC(N)=N/N=C\c1ccc(O)c(C(=O)O)c1	-2.4%	-1%	-3%
C[C@@](Br)(C(=O)O)[C@H](Br)C(=O)O	3.4%	-1%	-6%
Nc1ccn([C@H]2O[C@@H](COP(=O)(O)O)[C@@H](O)[C@H]2O)c(=O)n1	4.2%	-2%	-2%
O=S(=O)(O)/C(=C\c1ccccc1)c1ccccc1 (tested in a mixture with another compound)	3.3%	-3%	-2%
Cc1ccc2c(c1)N[C@H](c1ccc(C(=O)O)cc1)c1cccn1-2	6.8%	17%	-10%
NN(CC(=O)O)CC(=O)O	3.6%	1%	0%
Clc1ccc2c(NC3CCC(N4CCCCC4)CC3)ccnc2c1 (stereo not drawn)	-0.9%	0%	-9%
O=C(O)C(O)(c1ccc(-c2ccccc2)cc1)c1ccc(-c2ccccc2)cc1	-11%	6%	11%
O=C(O)CCc1ccc(-c2ccccc2)[nH]1	-4.8%	-5%	-2%
Cc1nnc(S(=O)(=O)c2ccc(N=Nc3c(N)nc(N)nc3N)cc2)s1	-0.2%	2%	7%

The closing four compounds of the part before open the next one.
SMILES	Cruzain inh Det	NS1 inh	Cruzain noTriton
Clc1ccc2c(NC3CCC(N4CCCCC4)CC3)ccnc2c1 (stereo not drawn)	-0.9%	0%	-9%
O=C(O)C(O)(c1ccc(-c2ccccc2)cc1)c1ccc(-c2ccccc2)cc1	-11%	6%	11%
O=C(O)CCc1ccc(-c2ccccc2)[nH]1	-4.8%	-5%	-2%
Cc1nnc(S(=O)(=O)c2ccc(N=Nc3c(N)nc(N)nc3N)cc2)s1	-0.2%	2%	7%
Cc1cc(Cl)ccc1Nc1sc(C(=O)c2cc3cc(Cl)ccc3o2)c(N)c1C#N	3.7%	-5%	?
O=[N+]([O-])c1ccc(C2=Nn3c(nnc3-c3ccc(Cl)cc3)SC2)o1	-5.8%	-55%	-6%
O=C1C[C@H]2C(=O)[C@@H]1[C@@H](C(=O)O)[C@H]2C(=O)O	1.9%	-1%	12%
CC(C)=C[C@H]1[C@@H](C(=O)OCc2cc3c(cc2Cl)OCO3)C1(C)C	0.1%	-13%	-6%
Cn1c(=O)c2c(nc(N/N=C\c3ccccc3C(=O)O)n2C)n(C)c1=O	5.2%	-3%	1%
Cc1ccc([C@@H](O)c2cnc(C)n2Cc2ccccc2)cc1	4.4%	-3%	1%
CC1(C)S[C@@H]2[C@H](NC(=O)Cc3ccccc3)C(=O)N2[C@@H]1C(=O)O	-2.1%	-8%	3%
NS(=O)(=O)c1cc(C(=O)O)c(Cl)c([N+](=O)[O-])c1Cl	3.6%	-31%	5%
CC1(C)N=C(N)N=C(N)N1c1cccc(OCc2cccc([N+](=O)[O-])c2)c1	0.9%	-8%	2%
NNC(=O)CCc1ccc2ccc3ccccc3c2c1	0.5%	15%	-10%
O=C(O)CN1C(=O)O[C@@H](c2ccccc2)C1=O	-3.3%	1%	0%
Cn1c(N)nc2c(nc(OCc3ccccc3)n2[C@@H]2O[C@H](CO)[C@@H](O)[C@@H]2O)c1=O	3.0%	-3%	0%
c1ccc(CN2COc3c(ccc4c5c(ccc34)CN(Cc3ccccc3)CO5)C2)cc1	4.8%	-3%	0%
NCCNCC1CCNCC1	6.6%	11%	-4%
COc1ccc([C@@H](Nc2ncccn2)c2cc3c(cc2O)OCO3)cc1	1.7%	5%	19%
Cc1ccc(CCCC(=O)O)cc1C	-0.8%	-6%	-1%
N[C@H](Cc1ccccc1)c1nn[nH]n1	-2.4%	-5%	5%
Nc1ccccc1O.O.O=C(O)[C@H]1[O][Sb][O][C@H]1C(=O)O	0.8%	-3%	-2%
O[C@@H](c1cc(C(F)(F)F)nc2c(Cl)cc(Cl)cc12)C1CCCCN1 (stereo partly drawn)	-3.0%	-3%	-6%
O=C(O)[C@H]1O[C@H]1C(=O)O	-1.0%	1%	3%
Oc1cc(CN2COc3ccccc32)c(O)cc1CNC1CCCCC1	0.7%	3%	-7%
N[C@H](C(=O)O)[C@H](N)C(=O)O	-4.6%	-1%	-6%
CN(C)Cc1cc(C(C)(C)C)ccc1-c1ccc(C(C)(C)C)cc1CN(C)C	5.6%	-3%	2%
O=[N+]([O-])c1ccc(NN=C2c3ccccc3Cc3ccccc32)c([N+](=O)[O-])c1	8.6%	-8%	-9%
Cc1cc2c(cc1C)NC1=C(N2)O[C@H](c2c[nH]c3ccc(COc4ccccc4)cc23)C1=O	-3.9%	-6%	-5%
Cn1ncc2c(Cl)ncnc21	2.1%	-6%	15%
CC(C)(C)CC(C)(C)c1ccc(O)c(C[N+](C)(C)[O-])c1	-2.2%	-3%	-1%
